# Bioassay records from PubChem BioAssay.
# Rango complex inh – inhibitors of Rango-importin beta complex formation. Rango CFP/YFP FRET sensor + importin beta, 45 min. Q14974. Potency, µM (doses to about 92.2 µM), for inactives: top-dose inhibition of complex formation. 0.031% of 340,000 active; active = rising FRET ratio curve, often small or poorly fitted; inconclusive = mostly compound fluorescence or quenching in the first reads; inactive = flat curves in all reads;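 note: potency is the fitted concentration of half-maximal effect; 0% = DMSO wells and 100% = buffer wells lacking importin beta; nearly all actives have a fitted effect of over 15% in size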
#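 Inhibition scored from the CFP 486 nm/YFP 530 nm FRET ratio 45 min after adding 0.125 microM importin beta to 50 nM Rango biosensor preincubated 5 min with compound (room temperature, PBS with DTT, Tween-20, BSA). No-importin wells as positive control.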
# GLA inh pH 4.5 – inhibitors of human alpha-galactosidase A at pH 4.5; 230,000 tested, under 10 active; purified enzyme, 4-MU-alpha-Gal fluorescence, pH 4.5; AID 1467; activity change, negative = inhibition, % at 105 µM; inconclusive = small, poorly fitted or top-dose-only inhibition, or a rising curve; inactive = flat fitted curve, though single readings scatter; no compound was filed as active;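 note: 0% = full activity with enzyme and -100% = basal without enzyme; dose as in the result columns while the protocol names 77 µM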
# Target sequence (P06280 whole entry, looked up): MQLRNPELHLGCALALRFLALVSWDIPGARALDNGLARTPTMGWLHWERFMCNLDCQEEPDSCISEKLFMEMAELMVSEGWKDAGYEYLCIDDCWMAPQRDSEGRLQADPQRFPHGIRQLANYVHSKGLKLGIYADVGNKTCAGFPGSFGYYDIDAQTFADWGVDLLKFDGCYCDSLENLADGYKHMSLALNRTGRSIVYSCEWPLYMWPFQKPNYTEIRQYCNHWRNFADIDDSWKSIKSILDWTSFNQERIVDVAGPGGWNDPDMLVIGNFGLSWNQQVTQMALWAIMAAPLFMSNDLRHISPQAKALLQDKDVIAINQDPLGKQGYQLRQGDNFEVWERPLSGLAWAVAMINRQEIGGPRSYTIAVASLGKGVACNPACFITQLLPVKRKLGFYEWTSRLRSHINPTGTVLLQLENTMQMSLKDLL
# miR-21 FLuc – miR-21 reporter, rising signal. 340,000 tested, under 10 active. AID 2288. Potency, µM (top dose mostly 38.3 µM), for the others: at the top dose reporter change, positive = more light. HeLa miR-21 FLuc reporter, luciferase, 48 h; active = well fitted rising curve with a large enough effect; inconclusive = small, poorly fitted or top-dose-only effect; inactive = no such curve, though single readings can be large or run the other way;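 note: % of control where 0% means no effect; miR-21 action dims this reporter so a rising signal means less miR-21 action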
#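 Luminescence from a firefly luciferase reporter carrying a miR-21 binding site downstream, stably expressed under a CMV promoter in HeLa cells that make miR-21 endogenously, reports miRNA modulation after 48 h compound exposure up to approximately 40uM final.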
# Rango dissoc inh – inhibition of RanGTP-driven Rango-importin beta dissociation; Biochemical FRET Rango-importin beta, RanGTP-induced dissociation; Potency, µM (series often up to 46.1 µM), for inactives: top-dose activity change, negative = inhibition; 0.071% of 340,000 active; AID 540253; active means falling FRET ratio curve, often poorly fitted, with flat reads before Ran was added; inconclusive means other falling curves, or compound fluorescence or quenching; inactive means flat or rising ratio curve;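 note: potency is the fitted concentration of half-maximal effect; % of control where 0% means no effect; nearly all actives have a fitted effect of over 45% in size; -100% = wells without RanGTP and RCC1; the record marks most hits as doubtful in a second field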
#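 Rango/importin beta premix (0.1/0.25 uM final), PBS + 1 mM DTT + 0.02% Tween-20 + 0.1% BSA; cpd 5 min RT; FRET pre-read; + RanGTP-RCC1 (0.6 uM Ran, 2 mM GTP, 0.2 uM RCC1); 45 min RT; FRET post-read, ex 430, em 486/530 nm.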
# The depositor's hits bear a star; ? = inconclusive; . = not tested or not shown; & = joins results of further samples. The list is partial; count on the stated rates, not on these rows.
SMILES,Rango complex inh,GLA inh pH 4.5,miR-21 FLuc,Rango dissoc inh
CC(=O)NC(Cc1ccc(C)cc1)C(=O)NC1CCN(C(=O)NCc2ccccc2)CC1 (stereo not given),2.1%,.,-4%,-4%
c1ccn(CCc2ccncc2)c1,2.2%,.,.,-4%
COc1ccc(-c2nnc(NC(=O)C(C)C)s2)c(OC)c1,?,-1,-33%,-10%
COc1ccc(NC(=O)c2ccccc2O)c(OC)c1,-0.3%,-14,-60%,1%
O=C(O)C/C(=C\c1ccc(N2CCOCC2)c([N+](=O)[O-])c1)c1nc2ccccc2s1,0.6%,-7,-46%,-20%
O=[N+]([O-])c1nn(-c2ccc3c(c2)OCCO3)n(O)c1=NC1CCCC1,0.0%,-1,-31%,20%
Cn1c(=O)c(N)c2c3c(c(Br)ccc31)C(=O)c1ccccc1-2,?,-6,-2%,?
COc1ccc(-c2nnc(SCC(=O)Nc3cc(C)on3)n2C)cc1OC,-5.2%,-4,-4%,-18%
Cc1nc(N=Nc2ccc(O)cc2)n[nH]1,8.2%,-10,-23%,0%
Cn1c(-c2ccc(C(=O)c3ccccc3)s2)nc2ccccc21,?,.,.,8.2µM*
O=C(CCCN1C(=O)/C(=C/c2cccs2)SC1=S)Nc1ccc(O)c(C(=O)O)c1,.,-7,1%,.
O=C(OCc1ccc(COC(=O)c2ccc(O)cc2)cc1)c1ccc(O)cc1,-2.6%,.,11%,-3%
CN(C)C(=O)CSc1nnc([C@H](Cc2c[nH]c3ccccc23)NC(=O)OC(C)(C)C)o1,-2.2%,4,-4%,-6%
COc1ccc(C)cc1NC(=O)c1nnn(Cc2cc(C)ccc2C)c1N,0.1%,-11,-22%,-18%
O=C(O)Cc1cn(Cc2ccc(F)cc2)c2ccccc12,-0.3%,11,2%,-10%
CCn1nc(C)cc1C(=O)NC1CCCc2c1cnn2-c1ccc(C)c(C)c1 (stereo not given),2.1%,.,23%,-6%
CC(Oc1ccc2c(=O)c(-c3ccc(Cl)cc3)c(C(F)(F)F)oc2c1)C(=O)O (stereo not given),-3.7%,-1,-2%,-1%
Fc1ccccc1Cn1cnc(NC(=S)NCCc2ccccc2)n1,.,-1,0%,.
Cc1cccc(C)c1NC(=O)c1ccc(CN2CCc3ccccc3C2)cc1,-1.5%,-10,8%,-9%
Cc1ccnc(NS(=O)(=O)c2ccc(N=CC3=C(O)CC(C)(C)CC3=O)cc2)n1,?,-1,-4%,?
COc1ccc(/C=C2\Sc3ccc(C(=O)N4CCN(Cc5ccccc5)CC4)cc3N(C)C2=O)cc1OC,?,.,?,?
N#CCSc1ccccc1NC(=O)COc1ccc(-c2nnco2)cc1,3.8%,.,.,-2%
CC1CCN(c2ccc(C(=O)NCc3ccc4c(c3)OCO4)cc2[N+](=O)[O-])CC1,5.1%,-1,-5%,24%
O=S(=O)(c1cc(Cl)ccc1Cl)N1CCN(Cc2ccco2)CC1,0.2%,.,-3%,12%
CC(C)(C)NS(=O)(=O)c1cc(C(=O)O)ccc1Cl,0.9%,6,-2%,0%
# Next section
SMILES,Rango complex inh,GLA inh pH 4.5,miR-21 FLuc,Rango dissoc inh
O=C1CC(c2ccc(S(=O)(=O)NC3CC3)cc2)CN1 (stereo not given),-0.4%,-10,-2%,9%
Cn1c2ccc(CC(=O)O)cc2c2cc(CC(=O)O)ccc21,-4.3%,-2,1%,-4%
COc1ccccc1CC(=O)NNC(=O)c1ccco1,-0.1%,.,-1%,1%
CC(C)CC(=O)N=C1SC2CS(=O)(=O)CC2N1Cc1ccccc1 (stereo not given),5.9%,-2,-2%,-10%
Cc1ccccc1OCCN1C(=O)c2ccccc2C1=O,-0.8%,0,-40%,9%
COCCNC(=O)CCSc1nc(-c2ccc(OC)cc2)cc(C(F)(F)F)n1,-0.2%,-6,-7%&-3%,-2%
O=c1o[nH]c(-c2ccccc2)c1-c1ccccc1,-0.9%,.,.,-1%
CCOc1ccc(NC(=O)NC2CCCc3ccccc32)cc1 (stereo not given),-2.4%,.,-10%,-7%
CCOC(=O)c1cnc(-n2nc(C)cc2C)nc1Nc1ccc2c(c1)OCO2,.,5,-2%,.
N#CCC(=O)Nc1ccc(C(=O)OCC(=O)c2ccc3c(c2)OCO3)cc1,0.0%,.,.,-8%
Fc1ccc(-c2cc(C(F)(F)F)nc(NCC3CCCO3)n2)cc1 (stereo not given),1.4%,-11,7%,-15%
COc1ccc(S(=O)(=O)N2CCN(C3CC4CCC3C4)CC2)cc1 (stereo not given),-0.1%,.,-2%,-3%
CCCCN(C(=O)c1cc2ccccc2o1)c1c(N)n(CCC)c(=O)[nH]c1=O,2.4%,0,2%,10%
CC1(C)CC(=O)C(N=Nc2cc3c(cc2[N+](=O)[O-])OCCO3)=C(O)C1,5.4%,4,-1%,0%
CCn1cc(C(=O)O)c(=O)c2cc(F)c(N3CCN(S(=O)(=O)c4ccc(Br)cc4)CC3)cc21,.,2,-7%,.
CCc1ccc(CN2CCC(N3CCC(C(=O)N4CCCC4)CC3)CC2)o1,-0.7%,.,2%,0%
Nc1ccc2oc(-c3cc(Br)ccc3Cl)nc2c1,?,0,16%,?
O=C(c1nc2ncccn2n1)N1CCN(c2ccccc2)CC1,-2.3%,9,0%,-12%
Cc1ccc(S(=O)(=O)NCc2ccc(C(=O)N3CCN(c4ccccc4)CC3)cc2)cc1,0.5%,.,10%,5%
CCC1CCC(C(=O)NC(C(=O)Nc2ccc3c(c2)OCCO3)C(C)C)CC1 (stereo not given),2.9%,6,-40%,2%
CC1CCCCC1NC(=O)Cn1nc(-c2ccccc2)ccc1=O (stereo not given),0.1%,4,-2%,-1%
CC(=O)Nc1ccc(Oc2ccc3nc(C)[nH]c3c2)cc1,-0.8%,3,-5%,12%
Cc1ccc(C)c(S(=O)(=O)N2C(=S)NC(=O)C2C(C)C)c1 (stereo not given),1.1%,-2,-7%,15%
Cc1[nH]c2ccccc2c1C(=O)CN1CCN(C/C=C/c2ccccc2)CC1,-1.6%,-16,14%,-8%
O=C(NC(n1ccc(=O)[nH]c1=O)C(Cl)(Cl)Cl)C12CC3CC(CC(C3)C1)C2 (stereo not given),5.9%,-21,-9%,7%

# 5 entries out of the list, arranged by SMILES length, high to low.
SMILES,Rango complex inh,GLA inh pH 4.5,miR-21 FLuc,Rango dissoc inh
CCC1CCC(C(=O)NC(C(=O)Nc2ccc3c(c2)OCCO3)C(C)C)CC1 (stereo not given),2.9%,6,-40%,2%
N#CCC(=O)Nc1ccc(C(=O)OCC(=O)c2ccc3c(c2)OCO3)cc1,0.0%,.,.,-8%
COCCNC(=O)CCSc1nc(-c2ccc(OC)cc2)cc(C(F)(F)F)n1,-0.2%,-6,-7%&-3%,-2%
Cc1ccc(C)c(S(=O)(=O)N2C(=S)NC(=O)C2C(C)C)c1 (stereo not given),1.1%,-2,-7%,15%
CC(C)CC(=O)N=C1SC2CS(=O)(=O)CC2N1Cc1ccccc1 (stereo not given),5.9%,-2,-2%,-10%

# Next part
SMILES,Rango complex inh,GLA inh pH 4.5,miR-21 FLuc,Rango dissoc inh
COc1cccc(C2c3[nH]c4ccccc4c3C[C@H]3C(=O)N(C)CC(=O)N23)c1 (stereo not given in full),6.6%,.,0%,-11%
CC(C)C(=O)Nc1ccc([N+](=O)[O-])cc1Br,11%,-8,-3%,21%
CN(C)S(=O)(=O)c1cccc(NC(=O)c2ccc(N3CCCC3=O)cc2)c1,-1.9%,.,.,-6%
COC(=O)c1cc(NS(=O)(=O)c2cccc(Cl)c2)ccc1N1CCOCC1,-0.2%,-4,-7%,17%
C=CCNC(=O)Nc1ccc(Br)cc1Cl,-3.7%,-7,-17%,10%
Cc1cc([N+](=O)[O-])nn1CCCC(=O)NCc1ccccc1,3.5%,-3,-6%,6%
CCCCN(C(=O)CCC(=O)Nc1cc(C)on1)C(C(=O)NC(C)(C)CC)c1cccc(OC)c1OC (stereo not given),-6.0%,2,4%,6%
CCOc1ccc(NC(=S)N2CCC(NC(=O)C3CCCCC3)CC2)cc1,2.5%,.,1%,-17%
CC(C)N1CCC2(CC1)N=C(c1ccc3c(c1)OCO3)CC(c1cc(Cl)ccc1O)N2 (stereo not given),0.3%,-1,21%,-12%
Cn1c(CSCCOc2ccccc2)n[nH]c1=S,3.3%,-2,1%,8%
O=C(Nc1nnc(-c2cccnc2)s1)c1cccs1,0.1%,2,-2%,2%
CCOC(=O)C1(Cc2cccc(Cl)c2)CCCN(C(=O)c2cc(C(C)C)nn2C)C1 (stereo not given),0.5%,.,7%,-5%
O=C(NC1CC1)C1CCN(C2CCN(C(=O)CCOc3ccccc3)CC2)CC1,-1.3%,0,-4%,4%
COc1ccccc1C(c1nnnn1CCc1ccccc1)N1CCN(c2ccccc2)CC1 (stereo not given),1.8%,5,-2%,-5%
O=C(Cn1c(NCCCO)nc2ccccc21)c1cccc(Br)c1,-1.5%,6,-8%,4%
NC(=O)CC(NC(=O)c1ccccc1)c1ccc(N2CCCCCC2)c([N+](=O)[O-])c1 (stereo not given),-1.6%,.,4%,-4%
CC(=O)CC(=O)Nc1ccccc1NC(C)=O,3.1%,1,-8%,3%
Cc1cn(CC(=O)c2ccccc2)c2ccccc12,-1.0%,.,-5%,-1%
COc1ccc(CNC(=O)CN(c2ccc(C)cc2)S(=O)(=O)c2c(C)noc2C)cc1,-0.6%,.,-1%&0%,-13%
CCN1CCN(CC(O)COCC2COc3ccccc3O2)CC1 (stereo not given),1.1%,-6,-5%,17%
CCc1ccc(OCCNC(=O)c2ccccc2SCc2ccc(F)cc2)cc1,-1.2%,3,25%,-7%
CCN1C[C@@H]2[C@@H]3C(=O)N(C)C(=O)[C@@H]3[C@](CC)(C1=O)N2C(=O)c1ccc(C(F)(F)F)cc1,0.0%,.,.,1%
C[C@@H]1NC(=O)c2cc([N+](=O)[O-])cc(I)c2OCC[C@@H](C(N)=O)NC(=O)[C@H](CCC(=O)O)NC1=O,.,-12,-11%,.
O=C(c1ccccc1[N+](=O)[O-])N1CCCC(C(=O)N2CCCCCC2)C1 (stereo not given),0.3%,.,1%,20%
CN(C)CCNC(=O)c1onc(CSc2ccc(F)cc2)c1C(=O)NCCN(C)C,0.7%,-3,-6%,8%
# Next section
SMILES,Rango complex inh,GLA inh pH 4.5,miR-21 FLuc,Rango dissoc inh
NS(=O)(=O)c1ccc(CCNc2cc(=O)n(Cc3ccc(F)cc3)c(=O)[nH]2)cc1,-0.4%,-2,-2%,-13%
O=C(c1cc(COc2ccc(F)c(F)c2)on1)N1CCN(C2CCCCC2)C(=O)C1,0.2%,.,-11%,0%
CC(/C=N\NC(=O)c1cc(C)oc1C)=C\c1ccccc1,4.3%,-1,-56%,31%
CCOC(=O)c1c(NC(=O)CSc2nnc(-c3ccc(Cl)cc3)o2)sc2c1CCC2,1.9%,.,.,11%
CCCCCN(C(=O)CCC(=O)OCc1ccccc1C(F)(F)F)c1c(N)n(CCCC)c(=O)[nH]c1=O,4.4%,.,-2%,1%
C=CCn1c(SCC(=O)NC2CCCCC2)nnc1-c1ccccn1,2.7%,.,-2%,7%
Cc1nn2c3ccccc3nc2n(C)c1=O,-4.4%,0,-3%,1%
CCN1CCN(Cc2nc3c(c(=O)n(C)c(=O)n3C)n2CCc2ccccc2)CC1,-1.4%,-2,-2%,-3%
CCOC(=O)c1c(C)nc2sc3c(=O)n(-c4ccc(OC)cc4)nnc3c2c1-c1ccc(OC)cc1,-1.0%,7,-5%,0%
O=C(NCCCNC(=O)c1ccco1)c1ccco1,-0.2%,-4,-9%,1%
CC(C)CCN(C(=O)C1=COCCO1)c1c(N)n(Cc2ccccc2)c(=O)[nH]c1=O,?,.,.,-22%
Nc1nonc1-n1nnc(C(=O)N/N=C/c2ccccn2)c1CNc1ccccc1,-1.5%,.,-1%,-11%
COc1ccc2c(c1)OC[C@H]1[C@H]2N2C(=O)CN(Cc3ccco3)C(=O)[C@@]2(C)[C@H]1c1ccccc1,5.5%,.,.,-6%
COc1ccc(Cl)cc1CC=NNC(=O)c1ccncc1,4.4%,.,.,0%
NC(=O)c1c(NC(=O)c2ccccc2Cl)sc2c1CCC2,2.3%,.,-38%,-1%
